rRNA inh HTS – reduced GFP signal of wild-type E. coli, primary screen, bacterial rRNA inhibitor project, GFP/RFP fluorescence, OD600, single point. E. coli WT GFP vs humanized-ribosome RFP mutants, 24 h; stronger effect = lower value; DMSO median 0, no signal -100. GFP signal change (wild-type ribosome), % (test concentration not listed). 350,000 tested, 1.6% active. AID 720706, 2013;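 active = significant combined selectivity score with lowered wild-type GFP, culture density cut under 30%, mutant RFP and density less affected; inactive = any of these conditions unmet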; note: one replicate is shown; some compounds called inactive have numbers as strong as hits
FGF22 binding – binders of human FGF22 protein, primary screen, FGF22 synaptogenesis inhibitor project, biophysical, thermal shift, single point; Fibroblast growth factor 22 (Homo sapiens), Q9HCT0; recombinant FGF22 thermal shift, SYPRO orange fluorescence; percent of sucrose octasulfate shift, DMSO zero; calls only at 9.99 µM; 340,000 tested, 1.5% active;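 active = melting point raised past a set limit in the mean and every replicate; three in four hits are not shown here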
Target sequence (Q9HCT0 whole entry, looked up): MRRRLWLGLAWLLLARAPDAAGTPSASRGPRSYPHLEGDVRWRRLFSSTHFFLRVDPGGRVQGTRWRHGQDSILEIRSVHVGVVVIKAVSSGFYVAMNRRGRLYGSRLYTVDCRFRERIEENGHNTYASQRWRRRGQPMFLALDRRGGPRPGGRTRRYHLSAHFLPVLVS
MLL AF4-AF9 inh – inhibitors of AF4 peptide binding to AF9, primary screen, biochemical, AlphaScreen, biotin-AF4 peptide, FLAG-AF9, single point; Protein AF-9 (Homo sapiens), P42568; inhibition, % at 10 µM; 350,000 tested, 0.47% active; AID 651704, 2012;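 active = every replicate reaching a set inhibition limit, whatever the replicate mean, cut at about 25% in these data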;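 note: 0% = plate neutral control median and 100% = total signal loss; the record names both 10 and 1 µM as test concentration; the first replicate is given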
Target sequence (P42568 whole entry, looked up): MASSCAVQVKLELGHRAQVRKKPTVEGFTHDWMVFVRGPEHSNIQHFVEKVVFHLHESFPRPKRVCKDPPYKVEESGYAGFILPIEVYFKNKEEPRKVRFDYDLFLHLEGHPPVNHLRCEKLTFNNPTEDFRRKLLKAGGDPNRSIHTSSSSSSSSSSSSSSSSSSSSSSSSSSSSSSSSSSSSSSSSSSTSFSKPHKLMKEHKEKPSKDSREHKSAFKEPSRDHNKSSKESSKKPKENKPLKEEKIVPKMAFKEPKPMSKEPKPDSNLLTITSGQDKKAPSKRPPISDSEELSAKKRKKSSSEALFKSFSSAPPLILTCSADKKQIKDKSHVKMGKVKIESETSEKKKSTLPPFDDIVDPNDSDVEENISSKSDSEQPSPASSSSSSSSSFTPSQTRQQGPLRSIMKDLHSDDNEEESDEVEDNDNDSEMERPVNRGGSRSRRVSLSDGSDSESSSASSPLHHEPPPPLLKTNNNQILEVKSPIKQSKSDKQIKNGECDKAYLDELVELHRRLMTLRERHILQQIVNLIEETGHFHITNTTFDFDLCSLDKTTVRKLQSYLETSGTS
rRNA inh HTS OD600 – second read-out of rRNA inh HTS, no call of its own (marks repeat the call); OD600 change, %; measured here: OD600 growth;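 optical density of the mix in the first replicate; 0 = DMSO median and -100 = no signal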
rRNA inh HTS RFP – further read-out of rRNA inh HTS, marked with its call; RFP signal change, %; measured here: RFP humanized mutant strains;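 first replicate; 0 = DMSO median and -100 = no signal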
* = called active by the depositor; i = inactive; . = no result given; + = active, no number. Not all compounds are listed. The share of hits here may be higher or lower than overall.

structure,rRNA inh HTS,rRNA inh HTS OD600,rRNA inh HTS RFP,FGF22 binding,MLL AF4-AF9 inh
CCCC#Cc1ccc([C@@H]2[C@H](C#N)N(C(=O)CN3CCOCC3)[C@H]2CO)cc1,4.9,5.0,-0.4,i,0.1
CNC[C@@H]1Oc2c(NC(=O)NC(C)C)cccc2C(=O)N([C@H](C)CO)C[C@@H]1C,2.5,11.4,2.5,i,-2.9
COc1ccc(NC(=O)C2(C)CCN2C2Cc3ccccc3C2)cc1OC (centres undefined),-9.4,-10.7,-1.1,i,5.9
CO[C@@H]1CN(C)C(=O)c2cc(NC(=O)C3CCCC3)ccc2OC[C@H](C)N(CC2CC2)C[C@H]1C,1.9,0.5,-0.6,i,-0.2
Nc1[nH]c(C(=O)c2ccccc2)c(-c2ccc3ccccc3c2)c1C(=O)NCc1ccc(-c2ccccc2)cc1,11.1,22.6,16.1,.,1.0
CC1(C(=O)Nc2ccc(Cl)c(Cl)c2)CCN1Cc1ccccc1OC(F)F (centres undefined),-9.2,-9.5,-3.7,i,-0.9
Cc1noc(C)c1S(=O)(=O)N(C)C[C@@H]1OCCCC[C@H](C)Oc2ccc(NC(=O)NC3CCCCC3)cc2C(=O)N([C@@H](C)CO)C[C@H]1C,0.6,3.5,-1.2,i,-3.2
CN(C)CCN1CCN(C2CN(Cc3cn(Cc4ccccc4)nn3)S(=O)(=O)C2)CC1 (centres undefined),22.2,10.9,3.0,i,0.1
CCOc1ccc(CCN2C(=O)C(=O)N([C@@H](Cc3ccccc3)CN3CCC[C@H]3CN3C(=O)C(=O)NC[C@@H]3CC(C)C)C[C@@H]2Cc2ccc(O)cc2)cc1,-6.2,-14.5,0.6,i,-2.3
N#C[C@@H]1[C@H](c2ccc(C3=CCCC3)cc2)[C@H](CO)N1S(=O)(=O)c1ccccc1,-1.3,-2.1,-1.5,i,-0.7
CCS(=O)(=O)N1CC2(CN(Cc3ccc(F)cc3)[C@H](CO)c3c2c2ccc(OC)cc2n3C)C1,-0.4,-28.0,6.2,i,7.4
CCCC#Cc1cnc2c(c1)C(=O)N([C@@H](C)CO)C[C@@H](C)[C@@H](CN(C)C(=O)Nc1ccccc1F)O2,0.5,7.9,1.8,i,-1.3
CNC[C@@H]1Oc2c(NS(=O)(=O)c3ccc(Cl)cc3)cccc2C(=O)N([C@H](C)CO)C[C@H]1C,1.4,-6.5,-3.6,i,-0.4
C[C@@H]1CN([C@H](C)CO)C(=O)c2cc(C3=CCCCC3)cnc2O[C@@H]1CN(C)C(=O)c1ccncc1,6.0,-3.9,-3.0,i,0.3
C[C@H]1CCCCO[C@@H](CN(C)C(=O)CCC(F)(F)F)[C@@H](C)CN([C@@H](C)CO)C(=O)c2cc(NC(=O)c3ccccc3)ccc2O1,-5.6,-9.8,0.0,i,-7.1
CCCN(C)C[C@H]1OCCCC[C@H](C)Oc2ccc(NC(=O)CCC(F)(F)F)cc2C(=O)N([C@H](C)CO)C[C@H]1C,3.0,1.1,-0.6,i,0.4
Cc1cccc(CN(C)C[C@@H]2Oc3ncc(-c4cccc(F)c4)cc3C(=O)N([C@H](C)CO)C[C@@H]2C)c1,-1.2,-6.4,10.9,i,4.8
C[C@@H]1CCCCO[C@H](CN(C)S(=O)(=O)c2ccc(Cl)cc2)[C@@H](C)CN([C@H](C)CO)C(=O)c2cc(NC(=O)Nc3ccc(F)cc3)ccc2O1,2.2,1.8,-0.7,i,-4.1
CC1(C)OC(=O)C2=C(C[C@@H](C3CCCC3)O[C@@H]2c2ccc(Cl)cc2)O1,-9.2,-2.1,-4.3,i,-3.2
CCc1nc2ccc(C(=O)Nc3cccc(NS(C)(=O)=O)c3)cn2c1N(C)C(=O)Cc1ccccc1,4.7,5.7,-1.7,i,-2.8
C[C@H](CO)N1C[C@H](C)[C@H](CN(C)S(C)(=O)=O)Oc2ccc(NC(=O)NC3CCCCC3)cc2C1=O,-2.8,-5.9,-2.5,i,-1.7
Cc1noc(C)c1S(=O)(=O)Nc1ccc2c(c1)C(=O)N([C@@H](C)CO)C[C@@H](C)[C@H](CN(C)Cc1ccncc1)OCCCC[C@H](C)O2,-2.0,2.2,0.6,i,0.2
O=C(C[C@H]1C=C[C@H](NC(=O)Nc2ccc3c(c2)OCO3)[C@H](CO)O1)NCc1ccccc1,-2.9,0.5,2.0,i,0.4
O=C(/C=C/c1ccc2c(c1)OCO2)NCCS(=O)(=O)N1CCN(c2ccccc2)CC1,7.9,8.5,3.3,i,-4.9
C[C@H]1CN([C@@H](C)CO)C(=O)c2cccc(NC(=O)c3ccc(-c4nccs4)cc3)c2O[C@@H]1CN(C)Cc1ccc(C(F)(F)F)cc1,3.9,7.5,0.4,i,1.0
CN(C[C@H]1N[C@@H](CO)[C@H]1c1ccc(-c2ccc(F)cc2)cc1)C(=O)C1CCC1,-3.4,-9.5,6.6,i,5.0
C/C=C/c1ccc2c(c1)O[C@H](CN(C)C(=O)c1ccc(F)cc1)[C@H](C)CN([C@@H](C)CO)S2(=O)=O,-9.4,-15.4,3.4,i,1.1
CCCC(=O)Nc1ccc2c(c1)OC[C@@H](C)N(C(=O)c1ccccn1)C[C@H](C)[C@H](OC)CN(C)C2=O,2.8,10.4,-0.7,i,-29.8
COc1ccc(-c2noc(CCC(=O)NC3CCCCCC3)n2)cc1OC,0.8,-17.6,2.0,i,-1.8
CC1(C(=O)NS(=O)(=O)c2ccccc2)CCN1C(=O)Cc1cccs1 (centres undefined),8.0,8.6,-11.4,i,1.5
CC(C)NC(=O)C1(C)CCN1C(=O)C(c1ccccc1)c1ccccc1 (centres undefined),5.1,12.8,2.3,i,-0.3
O=C(CC1CC1)N1CC2(C1)[C@H](c1ccccc1)[C@H](CO)N2C(=O)C1CCOCC1,2.5,7.5,-3.9,i,-1.9
COc1ccc(NC(=O)N(C)C[C@H]2Oc3ncc(C#C[C@H](C)O)cc3C(=O)N([C@H](C)CO)C[C@H]2C)cc1,1.8,-8.2,-2.2,i,-0.9
CC(=O)N1[C@@H]2c3ccc(-c4ccccc4F)c(=O)n3C[C@H]1[C@H](CO)[C@H]2C(=O)N1CCOCC1,1.2,4.3,-1.1,i,-1.9
Cc1ccccc1CNC(=O)C(C)Sc1ccccc1 (centres undefined),1.5,-0.3,1.2,i,-1.3
CCC(=O)N1[C@@H]2c3ccc(-c4ccccc4F)c(=O)n3C[C@H]1[C@H](CO)[C@H]2C(=O)NC1CCC1,-0.3,8.0,1.8,i,-14.4
COc1cccc(S(=O)(=O)N(C)C[C@@H]2Oc3cc(C4=CCCC4)ccc3S(=O)(=O)N([C@@H](C)CO)C[C@@H]2C)c1,5.2,28.4,-4.2,i,-1.6
CCCCC1Cc2[nH]c(=S)[nH]c(=O)c2C(C(C)C)O1 (centres undefined),19.4,16.6,5.3,i,-2.8
O=C(Nc1ccccc1)O[C@@H]1C[C@H]2CCCC(=O)N3CC[C@@H](C1)[C@@H]23,-4.0,2.0,-5.8,i,3.0
Cc1noc(C)c1S(=O)(=O)Nc1ccc2c(c1)C(=O)N([C@H](C)CO)C[C@@H](C)[C@H](CN(C)C(=O)Nc1ccccc1)O2,1.8,3.8,-3.0,i,-4.7
CCc1nc2ccc(C(=O)NCc3ccc(OC)cc3)cn2c1N(CC)Cc1cccc(Br)c1,-4.4,2.3,2.5,i,-7.5
CCCNC(=O)N(C)C[C@@H]1Oc2ncc(C#C[C@H](C)O)cc2C(=O)N([C@H](C)CO)C[C@H]1C,1.0,13.1,0.3,i,-8.2
CCCNC(=O)N1[C@H](C#N)[C@@H](c2ccc(C3=CCCC3)cc2)[C@H]1CO,1.9,1.3,0.6,i,-3.2
C[C@H]1CN([C@@H](C)CO)C(=O)c2cc(NC(=O)Nc3ccc(F)cc3)ccc2O[C@@H]1CN(C)C(=O)NC1CCCCC1,-0.5,-3.8,-2.0,i,-2.3
O=C(C[C@@H]1C=C[C@H](NC(=O)c2cccc(F)c2)[C@@H](CO)O1)NCCN1CCCC1,-0.1,7.2,0.3,i,-0.9
CN1c2ccc(Br)cc2[C@@H]2[C@@H](CCN2S(=O)(=O)c2ccccc2)[C@H]1CO,-46.5,-65.2,2.8,i,-4.3
CO[C@H]1CN(C)C(=O)c2ccc(NC(=O)C3CCCCC3)cc2OC[C@@H](C)N(Cc2cccnc2)C[C@H]1C,-5.7,-3.9,-0.2,i,-1.6
CCCN(C)C[C@H]1OCCCC[C@H](C)Oc2ccc(NS(=O)(=O)c3ccc(C)cc3)cc2C(=O)N([C@H](C)CO)C[C@H]1C,2.8,-7.0,3.0,i,4.6

Entries above that contain an NH in an aromatic ring (two):
structure,rRNA inh HTS,rRNA inh HTS OD600,rRNA inh HTS RFP,FGF22 binding,MLL AF4-AF9 inh
Nc1[nH]c(C(=O)c2ccccc2)c(-c2ccc3ccccc3c2)c1C(=O)NCc1ccc(-c2ccccc2)cc1,11.1,22.6,16.1,.,1.0
CCCCC1Cc2[nH]c(=S)[nH]c(=O)c2C(C(C)C)O1 (centres undefined),19.4,16.6,5.3,i,-2.8

New compounds follow:
structure,rRNA inh HTS,rRNA inh HTS OD600,rRNA inh HTS RFP,FGF22 binding,MLL AF4-AF9 inh
C[C@H]1CN([C@@H](C)CO)C(=O)Cc2cc(NC(=O)NC3CCCCC3)ccc2O[C@H]1CN(C)C(=O)NC1CCCCC1,4.8,-0.9,-2.2,i,-1.8
C[C@H](CO)N1C[C@H](C)[C@@H](CN(C)C(=O)Nc2cccc3ccccc23)Oc2c(NS(C)(=O)=O)cccc2C1=O,-0.8,4.9,-3.8,+,-0.2
N#CC(=C1C=C(Br)C(=NO)C=C1Cl)c1cccc2ccccc12,-9.6,4.1,-2.5,i,25.5*
COc1ccccc1Cn1c(C)c(C(=O)NCc2ccco2)sc1=O,-0.6,-6.1,-5.2,i,0.2
CO[C@H]1CC[C@H]2CCOc3ccc(C#N)cc3C(=O)N(C)C[C@@H](OC)[C@@H](C)C(=O)N(C)C[C@H]1O2,3.1,1.7,-5.4,i,0.5
C[C@@H](O)C#Cc1cnc2c(c1)C(=O)N([C@@H](C)CO)C[C@H](C)[C@H](CN(C)C(=O)CC1CC1)O2,0.8,2.9,-1.1,i,-1.5
Cc1nc2ccccc2n1C(c1cccnc1)c1nc2ccccc2[nH]1 (centres undefined),4.0,4.4,-0.7,i,2.2
O=C(NCc1ccccc1)c1cnc(Cc2c[nH]c3ccccc23)c(I)c1,-7.5,-0.4,6.6,i,0.9
C/C=C/c1cnc2c(c1)C(=O)N([C@H](C)CO)C[C@H](C)[C@H](CN(C)C(=O)Cc1ccccn1)O2,3.7,15.1,-3.4,i,-0.6
C[C@@H]1CN([C@H](C)CO)C(=O)c2cc(NS(=O)(=O)c3ccccc3)ccc2O[C@@H](C)CCCCO[C@H]1CN(C)C(=O)Nc1ccc2c(c1)OCO2,4.3,-17.8,-1.4,i,11.9
C[C@H]1CN([C@@H](C)CO)C(=O)Cc2cc(NC(=O)C3CCCCC3)ccc2O[C@H]1CN(C)C(=O)Nc1ccccc1,-2.6,-3.8,-0.6,i,-3.1
CN(C)C1CCCCC=CC(=O)NC1 (centres undefined),15.4,8.8,2.7,i,-3.4
COCC#Cc1cnc2c(c1)C(=O)N([C@H](C)CO)C[C@@H](C)[C@H](CN(C)C(=O)c1cccnc1)O2,5.0,-1.1,1.1,i,-4.2
CC(C)C[C@H]1CNC(=S)N1C[C@H]1CCCN1C[C@H](CC(C)C)N1C[C@H](Cc2ccc(O)cc2)N(CC2CCCCCC2)C1=S,4.5,12.1,0.3,i,6.9
CN(c1cccc(F)c1)c1cc2c(c3c1ccn3C)C1CCC2C1 (centres undefined),8.8,-1.8,23.7,i,10.1
C[C@@H]1CN([C@H](C)CO)C(=O)c2cccc(NC(=O)c3ccc(-c4nccs4)cc3)c2O[C@H]1CN(C)C(=O)Nc1cccc2ccccc12,0.4,-1.0,-0.3,i,-1.2
COc1ccc(Cn2cc(Cn3c4ccccc4c(=O)n3C(C)C)nn2)cc1,8.2,8.3,-1.1,i,-1.5
C[C@@H]1CN([C@@H](C)CO)C(=O)c2cc(NC(=O)Cc3ccccc3)ccc2O[C@@H](C)CCCCO[C@H]1CN(C)C(=O)C1CCCCC1,7.0,8.0,0.6,i,-1.4
C[C@H](CO)N1C[C@H](C)[C@@H](CN(C)S(=O)(=O)c2cn(C)cn2)Oc2c(cccc2N(C)C)C1=O,5.0,4.5,-6.3,i,-1.4

Screens as filed in PubChem.
